# Sa ugtP lethal – kills S. aureus RN4220 lacking UgtP | S. aureus RN4220 ugtP deletion, OD600 growth, 16 h; some inactives read as strong as hits | growth inhibition, % (test concentration not listed) | 330,000 compounds, 0.54% hits;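 active means z-score under -3 and OD600 up to 0.15 on both plates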;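 further: plate controls were untreated wells for no effect and antibiotic for full effect; wells of about 80 µL received 100 nL stock; the first replicate is given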
# Bead autofluor – compound fluorescence in toxin protease inhibitor counterscreen; compound autofluorescence counterscreen, microsphere flow cytometry; hits give high values; fluorescence intensity (test concentration not listed); 360,000 compounds, 3.1% hits;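 active means at least 3 SD above the mean of all compounds, about 16000 in these data; inconclusive means too few beads counted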;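 further: 100 nL of 1 mM stock went into each well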
# PrP 5UTR inh – suppresses PrP 5' UTR mRNA reporter expression. 340,000 compounds, 0.35% hits. cell-based PrP 5' UTR mRNA reporter, plate reader. inhibition, % (no concentration beside the values). AID 488862;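 active means every replicate at 50% or more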;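 further: 0 = median of the neutral control wells; tested in H4 reporter cells; numbers are from one replicate; inactives centre near -14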
# Mtb hypoxia rep – reduces hypoxia-regulated biosensor signal in M. tuberculosis; M. tuberculosis hypoxia-regulated fluorescent reporter, fluorescence; fluorescence inhibition, % (concentration not given with the values); 300,000 compounds, 0.1% hits; AID 1159583;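 active means 35 to 45% if threefold the growth effect, above 45% if 1.5-fold the growth effect; inactive means the rest, general growth blockers included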;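 further: wells of about 50 µL received 100 nL stock; 0% = vehicle wells and 100% = reference inhibitor wells; whole bacteria with a GFP reporter of the hypoxia response; strong numbers were not always called active; many hits fall short of the cut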
# BJeLR viability – BJeLR cell viability loss | inhibition, % (no concentration beside the values) | 300,000 compounds, 0.17% hits | BJeLR (HRASV12) viability, CellTiter-Glo ATP luminescence, 48 h; reference of the scale not given here;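 active means replicate mean above 50%; inconclusive means above 50% but judged a plate artefact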;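 further: 50 nL library stock added to about 25 µL; numbers are from one replicate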
# Sa RN4220 lethal – S. aureus RN4220 growth inhibition | OD600, 16 h | inhibition, % (test concentration not listed) | 330,000 compounds, 0.33% hits | AID 1259311;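 active means z-score of -3 or lower and OD600 up to 0.18 on both plates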;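 further: plate controls were untreated cells for no effect and reference antibiotic for full effect; stock transfer was 100 nL into about 80 µL; one replicate is shown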
# Mtb hypoxia rep growth – second read-out of Mtb hypoxia rep, no call of its own (marks repeat the call); growth inhibition, %; measured here: M. tuberculosis growth (absorbance);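 0% = vehicle and 100% = reference antibiotic; read after six days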
# * marks the source's active call; other numbers are inactive results; u = inconclusive; x = not tested or not shown; & = joins results of further samples. Not a hit list. About 4% of those tested had a hit in this group.
# Sample of the layout, 5 compounds:
SMILES,Sa ugtP lethal,Bead autofluor,PrP 5UTR inh,Mtb hypoxia rep,Mtb hypoxia rep growth,BJeLR viability,Sa RN4220 lethal
COc1ccccc1N1CCN(CCOc2c(OC)cccc2OC)CC1,2,6386,-9,14,11,-2,2.8
CCCOc1ccc2ccccc2c1C=Nn1cnnc1,8,x,x,2,-23,x,3.5
Cc1ccccc1NC(=O)C1CCN(S(=O)(=O)c2cccc3nonc23)CC1,5,3801,-15,4,15,-2,5.0
Cc1nnc(SCC(=O)Nc2ccc3c(c2)OCO3)o1,10,4510,-4,x,x,-4,3.9
Cc1cc(C)c2[nH]c(C(=O)Nc3ccc4c(c3)OCO4)cc2c1,-4,4575,-40,9,17,-7,-11

# This part in full, previewed entries included:
SMILES,Sa ugtP lethal,Bead autofluor,PrP 5UTR inh,Mtb hypoxia rep,Mtb hypoxia rep growth,BJeLR viability,Sa RN4220 lethal
COc1ccccc1N1CCN(CCOc2c(OC)cccc2OC)CC1,2,6386,-9,14,11,-2,2.8
CCCOc1ccc2ccccc2c1C=Nn1cnnc1,8,x,x,2,-23,x,3.5
Cc1ccccc1NC(=O)C1CCN(S(=O)(=O)c2cccc3nonc23)CC1,5,3801,-15,4,15,-2,5.0
Cc1nnc(SCC(=O)Nc2ccc3c(c2)OCO3)o1,10,4510,-4,x,x,-4,3.9
Cc1cc(C)c2[nH]c(C(=O)Nc3ccc4c(c3)OCO4)cc2c1,-4,4575,-40,9,17,-7,-11
CCOC(=O)CSc1nnc(N)s1,3,3678,-12,4,5,3,8.2
C=CCn1c(SCC(=O)NCc2ccc3c(c2)OCO3)nnc1C1COc2ccccc2O1 (stereo unspecified),6,6072,-16,-7,1,13,1.8
COc1ccccc1NS(=O)(=O)c1ccc(NC(C)=O)cc1,-7,18703*,-11,8,10,3,5.8
CCOC1OC(C(=O)NC2CC2)=CC(c2ccc3c(c2)OCO3)C1CCCO (stereo unspecified),5&-7,x,x,11&5,12&11,x,5.6&3.1
O=C(CSc1ccc2nnc(-c3ccccn3)n2n1)Nc1ccccc1,3,4229,-24,3,8,-4,1.8
CSCc1ccc(C(=O)Nc2ccc(C(N)=O)cc2)cc1,0,4898,-69,9,7,4,3.1
S=c1[nH]nc(-c2ccccn2)n1/N=C/c1ccc(-c2ccccc2Cl)o1,x,3273,-25,x,x,3,x

# An excerpt from above in order of heavy-atom count, falling:
SMILES,Sa ugtP lethal,Bead autofluor,PrP 5UTR inh,Mtb hypoxia rep,Mtb hypoxia rep growth,BJeLR viability,Sa RN4220 lethal
CCOC1OC(C(=O)NC2CC2)=CC(c2ccc3c(c2)OCO3)C1CCCO (stereo unspecified),5&-7,x,x,11&5,12&11,x,5.6&3.1
COc1ccccc1N1CCN(CCOc2c(OC)cccc2OC)CC1,2,6386,-9,14,11,-2,2.8
Cc1cc(C)c2[nH]c(C(=O)Nc3ccc4c(c3)OCO4)cc2c1,-4,4575,-40,9,17,-7,-11
CCCOc1ccc2ccccc2c1C=Nn1cnnc1,8,x,x,2,-23,x,3.5

# Later entries.
SMILES,Sa ugtP lethal,Bead autofluor,PrP 5UTR inh,Mtb hypoxia rep,Mtb hypoxia rep growth,BJeLR viability,Sa RN4220 lethal
CCc1noc(C)c1C(=O)N1CCCC(N2CCN(c3ccc(F)cc3)CC2)C1 (stereo unspecified),13,4590,1,6,2,15,4.8
COc1ccc(-c2ccc(F)cc2)cc1[C@H]1[C@H]2C=CC[C@@H](C)[C@@H]2C(=O)N1Cc1ccccc1,x,3972,-4,x,x,-9,x
Cc1nc(NCc2ccco2)c2oc3ccccc3c2n1,-13,3473,-7,22,19,1,4.6
Cc1cccc(C2c3[nH]c4ccccc4c3CCN2Cc2cccn2-c2ncccn2)c1 (stereo unspecified),-9,4863,-11,-15,7,-5,-8.6
O=C(CCC(=O)Nc1ccccc1Cl)NNC(=O)NC1CCCCC1,-2,4607,-11,7,-1,-8,-0.6
Cc1ccc(NS(=O)(=O)c2cccc(C(=O)NCC(c3ccco3)N3CCCCC3)c2)cc1 (stereo unspecified),6,6680,-23,-1,-6,6,2.4
CC(=O)Nc1ccc(NC(=O)COC(=O)c2cnccn2)cc1,7,4541,-22,-3,7,-1,0.3
O=C(COc1ccc(S(=O)(=O)N2CCOCC2)cc1)Nc1ccc(Br)cc1,-2,3414,0,-3,4,x,7.3
O=C(Nc1ccc(S(=O)(=O)NC2=NCCCCC2)cc1)c1cc(F)c(F)cc1Cl,2,x,-26,-11,-7,x,2.5
Cc1occc1C(=O)NC(C)c1ccc2c(c1)OCO2 (stereo unspecified),3,10623,-5,5,5,8,1.4
Cc1c(NC(=O)c2ccc(Br)o2)cccc1C(=O)O,-2,16116,-12,5,7,2,-0.6
Cc1cc(C(=O)CSc2nnc3ccccn23)c(C)n1-c1ccccc1,1,2683,67*,18,3,-3,3.4

# Part of the list above, limited to PrP 5UTR inh, Bead autofluor and Sa ugtP lethal.
SMILES | PrP 5UTR inh | Bead autofluor | Sa ugtP lethal
Cc1nc(NCc2ccco2)c2oc3ccccc3c2n1 | -7 | 3473 | -13
Cc1cccc(C2c3[nH]c4ccccc4c3CCN2Cc2cccn2-c2ncccn2)c1 (stereo unspecified) | -11 | 4863 | -9
Cc1ccc(NS(=O)(=O)c2cccc(C(=O)NCC(c3ccco3)N3CCCCC3)c2)cc1 (stereo unspecified) | -23 | 6680 | 6

# Next part.
SMILES,Sa ugtP lethal,Bead autofluor,PrP 5UTR inh,Mtb hypoxia rep,Mtb hypoxia rep growth,BJeLR viability,Sa RN4220 lethal
Cc1nn(CC(=O)NCc2ccccc2F)c(C)c1[N+](=O)[O-],-9,2624,-9,-1,-2,-8,-2.6
CCOC(=O)NC(=O)/C(C#N)=N/Nc1ccc(F)cc1,x,15720,-7,x,x,0,x
Cc1ccc(Cl)cc1NC(=O)C1C2CCC(O2)C1C(=O)O (stereo unspecified),8,3556,-27,9,17,14,1.1
COc1cc2cc(CN(Cc3nnnn3Cc3ccco3)C3CCCCC3)c(=O)[nH]c2cc1OC,-15,u,-2,4,4,-1,0.6
Cc1ccc(-c2ccc(=O)n(Cc3c(F)cccc3Cl)n2)cc1,16,2853,-18,10,-8,0,-0.6
O=C(COC(=O)c1ccc(S(=O)(=O)N2CCCC2)cc1)NCc1ccc(Cl)cc1,11,2599,1,x,x,6,9.0
O=C(O)C(Cc1ccc(OS(=O)(=O)Cc2ccccc2)cc1)NS(=O)(=O)Cc1ccccc1 (stereo unspecified),14,2950,-6,21,9,x,5.4
Clc1ccc2c(c1)C(N1CCNCC1)=Nc1ccccc1O2,-10,5148,-13,3,10,-5,-1.1
Cn1cc(-c2nnc(-c3ccccc3)o2)c2ccccc21,-12,3520,-60,x,x,1,4.8
O=C(CCn1c(=O)[nH]c2ccsc2c1=O)N1CCN(c2ccc([N+](=O)[O-])cc2)CC1,1,3657,-8,-6,9,-3,1.9
Cc1ccc(CNC(=O)Cn2cccc2C(=O)c2ccccc2)cc1,8,4013,-27,10,5,-11,5.0
COc1cccc(C(=O)NNc2c3ccccc3nc3ccccc23)c1,0,3178,-17,x,x,6,13

# Quoted from the listing.
# PrP 5UTR inh with `Cn1cc(-c2nnc(-c3ccccc3)o2)c2ccccc21` = -60
# Mtb hypoxia rep with `Cc1ccc(-c2ccc(=O)n(Cc3c(F)cccc3Cl)n2)cc1` = 10

# Remaining list, next part:
SMILES,Sa ugtP lethal,Bead autofluor,PrP 5UTR inh,Mtb hypoxia rep,Mtb hypoxia rep growth,BJeLR viability,Sa RN4220 lethal
CCN(CC(=O)Nc1c(F)cccc1F)C(=O)Cc1ccsc1,8,6376,-6,7,-4,x,5.5
COC(=O)C1=C(CCc2ccccc2)NC(=O)NC1c1ccc(Br)cc1 (stereo unspecified),-7,4297,-8,12,10,-19,4.2
COc1ccc(-c2cc(C(=O)Nc3sc4c(c3C#N)CCCC4)c3ccccc3n2)cc1OC,-4,3616,-13,x,x,-5,-4.0
CCOC(=O)C1=C(NC(=S)NC(=O)c2ccccc2)c2ccccc2CC1C(C)C (stereo unspecified),-12,2864,5,x,x,25,-5.8
CCOC(=O)c1sc(NC(=O)/C=C/c2c(F)cccc2Cl)nc1C,17,2487,-20,7,5,-5,0.1
CCC(C)NC(=O)c1cc(-c2ccc(OC)cc2)on1 (stereo unspecified),-8,11562,-85,-14,-1,2,0.6
COc1ccccc1NS(=O)(=O)c1cccc(C(=O)NN)c1,-2,15932,2,3,-2,5,-0.9
COc1cc(NC(=O)CSc2nc3ccccc3c(=O)n2C)ccc1NC(=O)c1ccco1,3,17911*,-82,8,4,-2,0.6
Cc1c2c(nc3c(C(=O)NC4CCCCC4C)cnn13)CCCC2 (stereo unspecified),-5,x,x,7,3,-3,7.3
CCOc1ncccc1C(=O)NCCc1ccc(OC)cc1,13,3670,-15,0,-2,3,2.3
Cc1cccc(C(=O)OCC(=O)NC23CC4CC(CC(C4)C2)C3)c1O,0,2779,-40,6,2,x,0.4
CCC1CCCCN1C(=O)CSc1nnc(-c2ccc(Cl)cc2)o1 (stereo unspecified),8,5878,-28,x,x,2,19
CC1CCN(C(=O)c2ccc(N3C(=O)c4ccccc4C3=O)cc2)CC1,13,3257,-10,6,5,1,-2.7
Cc1cc(C)c(C)c(S(=O)(=O)Nc2ccccc2C(=O)NCCCN2CCOCC2)c1C,0,4173,-30,-5,-2,4,3.3
COc1ccccc1-n1cnnc1SCC(=O)Nc1ncc(Cl)cc1Cl,-2,4675,-1,x,x,-2,4.1
CCOC(=O)C1C(=O)CC(C)(O)C(C(=O)OCC)C1c1cccc(OC)c1 (stereo unspecified),0,9391,-4,-1,11,-4,3.1
O=c1cc(SCc2ccccc2)nc[nH]1,-3,2226,-1,-4,1,x,-2.3
Cc1cc(C)n(-c2nc3c(c(=O)[nH]c(=O)n3C)n2C)n1,-4,2373,-11,8,-3,1,2.0
CC(Oc1cccnc1[N+](=O)[O-])C(=O)Nc1ccc(Cl)cn1 (stereo unspecified),1,7271,10,0,2,x,-5.2
CCOc1cc(CNc2ccccc2)cc(Br)c1OCc1ccccc1F,48,3678,-33,3,18,-3,-4.5
Nc1cc(-c2ccc(Cl)cc2)nn1-c1ccccc1,3,4382,-46,16,2,-20,3.0
COc1ccc(CCN2C(=O)NC(NS(=O)(=O)c3ccc(NC(C)=O)cc3)(C(F)(F)F)C2=O)cc1OC (stereo unspecified),-1,2713,-40,-1,-2,-7,1.6
O=C(NN=Cc1ccco1)C1(O)c2ccccc2-c2ccccc21,-1,x,x,-2,11,x,2.4
CCOC(=O)c1cc2sccc2n1Cc1ccc(C#N)cc1,4,7618,-13,-2,-1,-11,-2.5
Cc1ccc(C=NN2CCN(c3ccccn3)CC2)cc1,4,x,x,9,3,x,8.2
COc1ccc(-n2c(SCC(=O)Nc3cccc(C(=O)O)c3)nnc2-c2ccco2)cc1,10,3427,-25,4,-4,-4,0.1
CCNC(=O)COc1ncnc2scc(-c3ccc(F)cc3)c12,6,4451,-19,-10,-14,-11,13
COC(=O)c1ccccc1NC(=O)CCS(=O)(=O)c1ccc(Br)cc1,-6,2191,-22,16,5,9,16
C/C(=N\NC(=O)c1ccn(C)n1)c1ccc(NC(=O)c2cccc(F)c2)cc1,x,4338,-58,x,x,2,x
O=C(N/N=C/c1ccccn1)c1ccc(S(=O)(=O)N2CCCCCC2)cc1,x,2642,-4,x,x,-5,x
CC(O)c1cc2c(s1)c1cnn(Cc3ccccc3F)c(=O)c1n2C (stereo unspecified),-2,2771,-11,-6,-2,x,3.3
COc1nc(NCc2cccnc2)nc(NC2CCCCC2)n1,2,2508,-36,10,7,-2,3.1
CCOc1ccc2ccccc2c1CNc1nnnn1C,2,2015,-7,5,-1,-16,6.0
COc1cc(/C=C/C(=O)OCC(=O)NCc2cccs2)ccc1OC(F)F,17,2807,-6,-1,0,-2,5.8
COc1cc(OC)c2ccc(=O)oc2c1C(CC(=O)N1CCCC1)c1ccc(N(C)C)cc1 (stereo unspecified),-4,3407,-22,1,5,7,1.4
O=C1CSC(c2ccccc2)N1CC12CC3CC(CC(O)(C3)C1)C2 (stereo unspecified),8,3271,-15,3,-5,-3,9.7
CC(C)(C)S(=O)(=O)N1C[C@@H]2CC/C=C\C/C(c3ccccc3)=C\2[C@H]1CCO,-7,3581,-24,0,8,x,1.9
COc1cc(SC#N)ccc1N=Cc1c(C)[nH]n(-c2ccc(C)c(C)c2)c1=O,-19,7457,-15,-9,2,14,-11
Cc1ccc(CCNS(=O)(=O)c2ccc3c(c2)C(C)(C)C(=O)N3C)cc1,-5,6645,-6,-2,1,-2,6.2

# Screening data (PubChem BioAssay)
